ClpP mod: qHTS Assay for Activators of ClpP; ATP-dependent Clp protease proteolytic subunit (Bacillus subtilis (strain 168)), P80244; purified B. subtilis ClpP, FRET peptide cleavage, 20 min; Potency, µM (highest dose often 57.5 µM), for inactives: top-dose activity change, negative = active; actives 1.9% (n = 340,000); AID 651965, 2013; active = well fitted falling curve with a large enough effect; inconclusive = small, poorly fitted or top-dose-only effect; inactive = no such curve, though single readings can be large or run the other way; also: potency is read from the fitted curve at half-maximal effect; the source files actives as falling curves though it sought activators and does not explain the sign; nearly all actives have a fitted effect of over 65% in size; many hits overshoot -100%
Target sequence (P80244 whole entry, looked up): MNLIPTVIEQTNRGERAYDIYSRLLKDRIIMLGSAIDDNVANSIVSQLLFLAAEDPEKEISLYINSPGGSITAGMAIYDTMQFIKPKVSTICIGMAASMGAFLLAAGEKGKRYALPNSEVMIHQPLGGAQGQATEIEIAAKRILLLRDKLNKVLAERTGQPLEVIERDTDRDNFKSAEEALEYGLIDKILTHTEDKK
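Buffer: 100 mM Tris/HCl pH8, 100 mM KCl, 0.05% low protease BSA, 2.5% glycerol, 0.01% Tween-20. ClpP 10 microg/mL final; 20 min RT; delta FRET normalized to ADEP and DMSO controls.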
D2 potentiator: Beta-Arrestin HTS for Positive Allosteric Modulators of the Human D2 Dopamine Receptor: Potentiators; D(2) dopamine receptor (Homo sapiens), P14416; DiscoveRx D2 beta-arrestin cells, luminescence, 90 min; 100% = 57 uM dopamine signal; potentiation, % (test concentration not listed); actives 0.23% (n = 360,000); AID 624464, 2012; active = potentiation of 50% or more; inconclusive = 30% to 50%; inactive = 30% or less;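 also: compound concentration not given in the record; tested on top of an EC20 dose of dopamine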
Target sequence (P14416 whole entry, looked up): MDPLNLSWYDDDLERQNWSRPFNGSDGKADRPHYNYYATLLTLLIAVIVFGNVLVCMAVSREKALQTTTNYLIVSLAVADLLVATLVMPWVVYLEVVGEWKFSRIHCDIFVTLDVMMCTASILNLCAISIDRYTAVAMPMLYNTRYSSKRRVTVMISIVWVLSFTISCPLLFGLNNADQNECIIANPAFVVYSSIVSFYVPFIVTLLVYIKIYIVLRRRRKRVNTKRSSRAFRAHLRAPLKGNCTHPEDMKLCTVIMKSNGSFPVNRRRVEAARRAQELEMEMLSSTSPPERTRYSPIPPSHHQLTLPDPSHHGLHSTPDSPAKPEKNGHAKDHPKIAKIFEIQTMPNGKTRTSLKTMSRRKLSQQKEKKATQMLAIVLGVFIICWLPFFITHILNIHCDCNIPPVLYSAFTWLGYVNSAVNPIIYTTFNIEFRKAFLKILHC
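PathHunter D2 cells, attached overnight at 37 deg C, received compound in DMSO plus dopamine at EC20 (50 nM final) for 90 min at 37 deg C. Beta-arrestin recruitment was read as luminescence after 1 h with detection reagent at ambient temperature.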
Active calls of the source: *; ? = inconclusive. Some of the compounds tested. The share of hits here may be higher or lower than overall.

nr	Compound	ClpP mod	D2 potentiator
1	CC(=O)Nc1ccc(CN2C(=O)C(C)ON=C2c2ccccc2-c2ccco2)cc1 (centres undefined)	-12%	3
2	CN(Cc1cnn(-c2ccc(F)cc2)c1)C(=O)[C@H]1O[C@@H](n2ccc(N)nc2=O)[C@H](O)[C@@H]1O	-0.4%	-5
3	NS(=O)(=O)c1ccc(N2N=C(c3ccccc3)CC2c2ccc(Br)cc2)cc1 (centres undefined)	4.4%	-4
4	CCOC1=C2[C@@H](CN(S(=O)(=O)c3ccc(C)cc3)[C@H]2c2ccccc2Cl)[C@H]2C(=O)N(C)C(=O)[C@H]2C1	1.3%	-6
5	Cc1ccc(-c2ccc(CN3C(C)C(=O)N(Cc4cn(Cc5ccco5)nn4)CCS3(=O)=O)cc2)c(C)c1 (centres undefined)	0.4%	-1
6	O=C1OC(c2cccs2)Sc2ccccc21 (centres undefined)	2.2%	-6
7	COc1ccccc1C(NC(=O)C1CCN(CCOc2ccccc2)CC1)c1ccccn1 (centres undefined)	1.0%	-21
8	CC(C)NC(=O)c1cc(C2CCCCN2S(=O)(=O)c2ccc(F)cc2F)on1 (centres undefined)	0.4%	2
9	COCCNc1ncnc2c1ncn2[C@H]1CN(Cc2cc(OC)c(OC)c(OC)c2)C[C@@H](CO)O1	-5.1%	-1
10	CC(=O)c1cccc(-c2ccnc3c2CC(C(=O)NCC2CCOCC2)O3)c1 (centres undefined)	-0.8%	-12
11	Cc1ccccc1S(=O)(=O)N1[C@@H](c2cccc(Cl)c2)C(C(=O)OC(C)(C)C)=CC[C@H]1c1ccc(Cl)cc1	-4.3%	-5
12	CC(N)c1csc(Nc2cc(Oc3ccccc3)ncn2)n1 (centres undefined)	-0.9%	-4
13	CCCCN(C)c1c(C)nc2ccc(C(=O)N3CCN(C(C)=O)CC3)cn12	0.5%	-14
14	CC(=O)OC[C@@H]1CN(Cc2cccc(C(F)(F)F)c2)C[C@H](n2cnc3c(N4CCOCC4)ncnc32)O1	0.9%	0
15	COCCNc1nc(Nc2ccc(C)cc2C)c2sc(-c3ccccc3)cc2n1	?	-10

Ordered by the number under D2 potentiator (low to high): three from the list above.
| item | mol | D2 potentiator |
| --- | --- | --- |
| 13 | CCCCN(C)c1c(C)nc2ccc(C(=O)N3CCN(C(C)=O)CC3)cn12 | -14 |
| 11 | Cc1ccccc1S(=O)(=O)N1[C@@H](c2cccc(Cl)c2)C(C(=O)OC(C)(C)C)=CC[C@H]1c1ccc(Cl)cc1 | -5 |
| 5 | Cc1ccc(-c2ccc(CN3C(C)C(=O)N(Cc4cn(Cc5ccco5)nn4)CCS3(=O)=O)cc2)c(C)c1 (centres undefined) | -1 |

(list continues)
nr	Compound	ClpP mod	D2 potentiator
16	CC1(C(=O)O)CCN1C(=O)/C=C/c1ccccc1 (centres undefined)	-1.7%	-3
17	COc1ccccc1CNc1nc(Nc2ccccc2OC)c2sccc2n1	-7.4%	-25
18	CC1(C(=O)NS(=O)(=O)c2ccc(Cl)cc2)CCN1C(=O)CCc1cccs1 (centres undefined)	0.8%	5
19	NC(=O)c1cccc(-c2ccnc3c2CC(C(=O)NCc2cccc(Cl)c2)O3)c1 (centres undefined)	-3.2%	3
20	CC1(C(=O)NCCc2ccccc2)Cc2c(-c3ccc4c(c3)OCO4)ccnc2O1 (centres undefined)	4.5%	-7
21	CC(C)(C)c1cc(NC(=O)C2(C)CCN2C(=O)C2(c3ccccc3)CCCC2)no1 (centres undefined)	2.8%	2
22	Cc1ccc(C(O)c2ncc(-c3ccc(Cl)cc3)[nH]2)cc1 (centres undefined)	-1.0%	-21
23	COC(=O)c1cccc(CN2C(=O)C(C)Sc3cc(Cl)ccc32)c1 (centres undefined)	-2.9%	-9
24	COCCNC(=O)C1(C)CCCN(Cc2ccc(-c3ccccn3)cc2)C1 (centres undefined)	-1.2%	-7
25	Cn1c(=O)c2cc(NC(=O)NCc3ccc(F)cc3)ccc2n1C	4.5%	14
26	Clc1ccc2nc(-c3ccco3)c(Cc3ccccc3)n2c1	-30%	-8
27	Cc1ccc2c(CN(C)Cc3ccccc3)cc(=O)oc2c1	-7.8%	-4
28	CC1Sc2ccccc2N(Cc2ccc(OC(F)(F)F)cc2)C1=O (centres undefined)	-1.4%	-8
29	CNc1cc(-c2ccc(C(=O)OC)cc2)ncn1	-28%	-6
30	Fc1ccc(-c2nc3c4ccccc4ccn3c2Cc2cccc(Cl)c2)cc1	?	-9

The final 3 compounds of the section above are carried over, then new ones follow:
nr	Compound	ClpP mod	D2 potentiator
28	CC1Sc2ccccc2N(Cc2ccc(OC(F)(F)F)cc2)C1=O (centres undefined)	-1.4%	-8
29	CNc1cc(-c2ccc(C(=O)OC)cc2)ncn1	-28%	-6
30	Fc1ccc(-c2nc3c4ccccc4ccn3c2Cc2cccc(Cl)c2)cc1	?	-9
31	O=C(NCc1ccccc1)c1cc(C2CCCN(C(=O)c3ccc4c(c3)CCO4)C2)on1 (centres undefined)	1.0%	-5
32	Cc1cc(C(=O)N2CCC2(C)C(=O)NS(=O)(=O)c2ccccc2Cl)nn1C (centres undefined)	-0.9%	-8
33	CCOC(=O)C1(C)CCCN1C(=O)c1cccc2ccccc12 (centres undefined)	-0.5%	-11
34	Cn1c(=O)c2cc(NC(=S)NC3CC3)ccc2n1Cc1ccccc1	5.1%	-5
35	CCC(=O)N1CCC1(C)C(=O)Nc1ccc(F)cc1 (centres undefined)	-5.0%	-2
36	Cc1ccc2ccccc2c1C(O)c1ncc(-c2ccccc2)[nH]1 (centres undefined)	-2.1%	-8
37	Cn1cc(-c2cccc3nncn23)cn1	-21%	0
38	Cn1ccc2c(N(c3ccccc3)C3CCCCC3)cc3c(c21)C1CCC3O1 (centres undefined)	?	-5
39	COc1cc(Cn2c3ccc(NC(=O)NCc4ccc(F)cc4)cc3c(=O)n2C)ccc1F	4.5%	4
40	CC1(C(=O)NCc2ccc(C(F)(F)F)cc2)CCN1C1Cc2ccccc2C1 (centres undefined)	0.4%	-4
41	COc1ccc(CC(N)c2csc(NC(=O)Nc3cc(OC)ccc3OC)n2)cc1 (centres undefined)	-5.1%	-12
42	CCOC(=O)C1(C)CCCCCN1C(=O)c1snnc1C (centres undefined)	0.9%	-3
43	O=C(Nc1nnc([C@@H]2C[C@H](O)[C@@H](CO)O2)s1)Nc1ccccc1Oc1ccccc1	-1.6%	-6
44	Cc1cn([C@H]2C[C@H](O)[C@@H](CCC(=O)NCc3ccc4c(c3)OCO4)O2)c(=O)[nH]c1=O	1.9%	-3
45	Cc1ccc(-c2nc3ccc(Cl)cn3c2Cc2ccsc2)cc1	?	-7

A second format for part of the listing above.
Screens in order – ClpP mod, D2 potentiator
35	CCC(=O)N1CCC1(C)C(=O)Nc1ccc(F)cc1 (centres undefined)
→ -5.0%, -2
36	Cc1ccc2ccccc2c1C(O)c1ncc(-c2ccccc2)[nH]1 (centres undefined)
→ -2.1%, -8
37	Cn1cc(-c2cccc3nncn23)cn1
→ -21%, 0
38	Cn1ccc2c(N(c3ccccc3)C3CCCCC3)cc3c(c21)C1CCC3O1 (centres undefined)
→ ?, -5
39	COc1cc(Cn2c3ccc(NC(=O)NCc4ccc(F)cc4)cc3c(=O)n2C)ccc1F
→ 4.5%, 4
40	CC1(C(=O)NCc2ccc(C(F)(F)F)cc2)CCN1C1Cc2ccccc2C1 (centres undefined)
→ 0.4%, -4

Next entries.
nr	Compound	ClpP mod	D2 potentiator
46	COc1cccc(NC(=O)C2(C)CCN2C(=O)Cc2cccc3ccccc23)c1 (centres undefined)	0.8%	-11
47	CC(C)N1CCC(C)(C(=O)Nc2ccc(-n3cccc3)cc2)C1 (centres undefined)	-0.3%	-5
48	COc1cccc(CNc2nc3cc(-c4ccc(F)cc4)sc3c(=O)n2C)c1	-19%	-7
49	O=C(c1[nH]c(C(F)(F)F)nc1-c1ccccc1)N1CCc2c([nH]c3ccccc23)C1	-18%	-8
50	Fc1cccc(Cc2c(-c3cccc(Cl)c3)nc3ccc(Cl)cn23)c1	?	-1
51	CC(C)(C)c1ccc(C(O)c2ncc(-c3ccccc3)[nH]2)cc1 (centres undefined)	-0.5%	-10
52	CC(=O)Nc1cc(-c2cccc(C(=O)NCCO)c2)cn2c(-c3cccc(C(F)(F)F)c3)cnc12	-12%	-5
53	Cc1cc(C)c(C(O)c2ncc(-c3ccccc3F)[nH]2)c(C)c1 (centres undefined)	-4.8%	-13
54	CC1(C(=O)NS(=O)(=O)C2CC2)CCN(C(=O)c2ccccc2F)C1 (centres undefined)	-1.4%	-3
55	CC1(C(=O)N2CCCCC2)CCN1C(=O)C1(c2ccccc2)CC1 (centres undefined)	0.3%	0
56	CC1(C(=O)NS(=O)(=O)c2ccc(Cl)cc2)CCN1C(=O)c1ccccc1CCc1ccccc1 (centres undefined)	-1.5%	-4
57	Cc1ccc(C(O)c2ncc(-c3ccccc3C(F)(F)F)[nH]2)cc1F (centres undefined)	-2.4%	-5
58	CCOC1=C2[C@@H](CN(S(=O)(=O)c3ccc(C)cc3)[C@H]2c2ccccc2F)[C@H]2C(=O)NC(=O)[C@H]2C1	2.8%	-4
59	CN(C)c1nc(N)nc2c1ncn2C1OC(CO)CC1O (centres undefined)	-6.4%	-6
60	Cc1cc2nc(-c3ccccc3)c(Cc3ccccc3)n2c(C)c1Br	-1.1%	-6
61	CN(C)c1ncnc2c1ncn2[C@H]1CN(Cc2ccncc2)C[C@@H](CO)O1	-3.2%	-16
62	O=C(NCc1ccc(C(F)(F)F)cc1)c1cccc2c(-c3cccnc3)coc12	-11%	-20
63	CN(C)CCNC(=O)c1cccc(-c2cnc3c(NC=O)cc(-c4cccs4)cn23)c1	-19%	2
64	O=C(Nc1ccc(F)c(Cl)c1)c1cc(C2CCCCN2C(=O)C2CC2)on1 (centres undefined)	-1.1%	-4
65	CCCCN(C=O)c1c(CC)nc2ccc(C(=O)Nc3cc(-c4ccccc4)ccc3OC)cn12	?	-2
66	COc1ccc(NC(=O)C2Cc3c(-c4ccc(NC(C)=O)cc4)ccnc3O2)cc1 (centres undefined)	?	1
67	OCCN1CCN(c2ncnc3c2ncn3[C@H]2CN(Cc3cccs3)C[C@@H](CO)O2)CC1	1.3%	-8
68	COc1ccc(C(=O)N2CCCCC2c2cc(C(=O)NCc3cccnc3)no2)cc1 (centres undefined)	-0.3%	-3
69	CN1CCC(N2CCN(C3CN(Cc4ccccc4)S(=O)(=O)C3)CC2)CC1 (centres undefined)	1.9%	1
70	COc1cc(NC(=O)Nc2nc(C(N)Cc3ccc(C(F)(F)F)cc3)cs2)cc(OC)c1OC (centres undefined)	-0.6%	3
71	Cc1ccc(NC(=O)C2(C)CCN2C(=O)Cc2cc(F)ccc2F)cc1 (centres undefined)	1.4%	-5
72	COc1ccc(-c2nc3ccc(Br)cn3c2Cc2cccc(F)c2)cc1OC	-5.7%	-7
73	COC(=O)c1sccc1S(=O)(=O)Nc1ccc(C(O)(C(F)(F)F)C(F)(F)F)cc1	-0.4%	-3
74	NC(c1csc(NC(=O)Nc2ccccc2Cl)n1)C1CCCCC1 (centres undefined)	0.1%	-26
75	O=S1(=O)CC(N2CCN(CCO)CC2)CN1Cc1ccccc1 (centres undefined)	-1.3%	-3
76	CCN(CC)c1ncnc2c1ncn2[C@H]1CN(CCOC)C[C@@H](CO)O1	0.0%	3
77	COc1ccc2oc3cc(Cl)ccc3c(=O)c2c1	4.6%	-4
78	CCCNC(=O)C1(C)CCCN(C(=O)c2ccc(F)c(Cl)c2)C1 (centres undefined)	-0.8%	3
79	Cc1ccccc1S(=O)(=O)NC(=O)C1(C)CCN1C(=O)c1cccc2ccccc12 (centres undefined)	0.2%	-8
80	COc1ccc(OC)c(C(O)c2ncc(-c3ccc(C(F)(F)F)cc3)[nH]2)c1 (centres undefined)	-1.4%	-5
81	COc1ccc(-c2cc(C(=O)NCc3cccc(C(F)(F)F)c3)[nH]n2)c(C)c1	1.6%	-20
82	COc1ccc(-n2nnnc2C(c2ccccc2OC(F)(F)F)N2CCN(C/C=C/c3ccccc3)CC2)cc1 (centres undefined)	-1.4%	-14
83	OC(c1ccccc1)c1nc(-c2cc(F)cc(F)c2)cs1 (centres undefined)	-1.8%	-7
84	CC(C)C(=O)N1CCC1(C)C(=O)NCc1cc(Cl)ccc1F (centres undefined)	-2.3%	-10
85	CC(C)(C)c1ccc(CC(=O)N2CCC2(C)C(=O)NS(=O)(=O)c2cccc(F)c2)cc1 (centres undefined)	2.2%	0
86	CC(=O)Nc1cc(-c2ccccc2CN(C)C)cn2c(-c3ccc(C(C)=O)cc3)cnc12	-9.7%	-2
87	COc1cccc(NC(=O)C2(C)CCN2CC2CCCCC2)c1 (centres undefined)	1.4%	-15
88	C=C1C(=O)[C@]23C[C@H]1CC[C@H]2[C@]1(C)[C@@H](OC(C)=O)CC[C@@](C)(C(=O)O)[C@H]1C[C@@H]3OC(C)=O	1.6%	-6
89	CC(=O)NCCNc1nc2cc(-c3cccc(C(F)(F)F)c3)sc2c(=O)n1C	-10.0%	0
90	CCCNC(=O)C1(C)CCCN(Cc2cccs2)C1 (centres undefined)	-0.8%	-2
91	FC(F)(F)c1ccc(-c2cccc3c2C2CC3CCN2C(=S)NCCc2ccccc2)cc1 (centres undefined)	-1.7%	2
92	Cc1cc2nc(-c3ccc(F)cc3)c(CC(C)(C)C)n2c(C)c1Br	-6.5%	-8
93	COCCNC(=O)C1(C)CCCN(Cc2cc(-c3ccccc3)on2)C1 (centres undefined)	-0.4%	-2
